From PubChem
rRNA inh HTS: reduced GFP signal of wild-type E. coli, primary screen, bacterial rRNA inhibitor project, GFP/RFP fluorescence, OD600, single point; GFP signal change (wild-type ribosome), % (no concentration beside the values); 350,000 compounds, 1.6% hits; E. coli WT GFP vs humanized-ribosome RFP mutants, 24 h; hits give low values; DMSO median 0, no signal -100; AID 720706, 2013;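 active means significant combined selectivity score with lowered wild-type GFP, culture density cut under 30%, mutant RFP and density less affected; inactive means any of these conditions unmet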; further: one replicate is shown; some compounds called inactive have numbers as strong as hits
FGF22 binding: binders of human FGF22 protein, primary screen, FGF22 synaptogenesis inhibitor project, biophysical, thermal shift, single point. recombinant FGF22 thermal shift, SYPRO orange fluorescence; percent of sucrose octasulfate shift, DMSO zero. AID 651658, 2012. calls only at 9.99 µM. 340,000 compounds, 1.5% hits. Fibroblast growth factor 22 (Homo sapiens), Q9HCT0;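 active means melting point raised past a set limit in the mean and every replicate; three in four hits are not shown here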
Target sequence (Q9HCT0 whole entry, looked up): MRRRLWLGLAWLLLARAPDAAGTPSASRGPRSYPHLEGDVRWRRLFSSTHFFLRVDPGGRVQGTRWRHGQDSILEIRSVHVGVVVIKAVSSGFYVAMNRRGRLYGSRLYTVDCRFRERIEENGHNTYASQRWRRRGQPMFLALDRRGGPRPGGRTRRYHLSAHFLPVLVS
MLL AF4-AF9 inh: inhibitors of AF4 peptide binding to AF9, primary screen, biochemical, AlphaScreen, biotin-AF4 peptide, FLAG-AF9, single point; inhibition, % at 10 µM; 350,000 compounds, 0.47% hits;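 active means every replicate reaching a set inhibition limit, whatever the replicate mean, cut at about 25% in these data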;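 further: 0% = plate neutral control median and 100% = total signal loss; the record names both 10 and 1 µM as test concentration; the first replicate is given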
Target sequence (P42568 whole entry, looked up): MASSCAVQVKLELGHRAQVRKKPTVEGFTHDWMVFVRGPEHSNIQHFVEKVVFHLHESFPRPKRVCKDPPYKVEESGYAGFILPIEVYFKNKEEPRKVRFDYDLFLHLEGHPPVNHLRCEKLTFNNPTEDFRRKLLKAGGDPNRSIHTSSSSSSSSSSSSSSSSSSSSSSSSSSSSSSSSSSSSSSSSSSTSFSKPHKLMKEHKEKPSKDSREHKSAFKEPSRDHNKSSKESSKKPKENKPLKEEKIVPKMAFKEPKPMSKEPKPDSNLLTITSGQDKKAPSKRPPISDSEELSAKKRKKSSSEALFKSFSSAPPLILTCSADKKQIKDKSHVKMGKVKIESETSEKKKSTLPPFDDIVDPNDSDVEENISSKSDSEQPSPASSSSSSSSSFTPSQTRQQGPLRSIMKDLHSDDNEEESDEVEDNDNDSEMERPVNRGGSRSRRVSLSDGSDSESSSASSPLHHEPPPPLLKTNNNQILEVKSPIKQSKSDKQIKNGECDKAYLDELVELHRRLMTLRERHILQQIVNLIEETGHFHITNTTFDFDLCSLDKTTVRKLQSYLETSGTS
rRNA inh HTS OD600: further read-out of rRNA inh HTS, marked with its call; OD600 change, %; measured here: OD600 growth;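 optical density of the mix in the first replicate; 0 = DMSO median and -100 = no signal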
rRNA inh HTS RFP: recorded beside rRNA inh HTS, whose call it bears; RFP signal change, %; measured here: RFP humanized mutant strains;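 first replicate; 0 = DMSO median and -100 = no signal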
Active calls of the source: *; i = inactive; & = joins results of further samples.

SMILES	rRNA inh HTS	rRNA inh HTS OD600	rRNA inh HTS RFP	FGF22 binding	MLL AF4-AF9 inh
COc1cc(CNC(=O)c2cc(-c3cc(F)ccc3OC(C)C)n[nH]2)cc(OC)c1	-7.5	-15.1	-2.5	i	0.2
O=C(C[C@H]1CC[C@@H]2[C@H](COC[C@@H](O)CN2C(=O)c2ccncc2)O1)NCc1cccc(F)c1	1.2	4.0	-1.6	i	-18.1
COc1ncc(-c2ccc(N3C(c4ccc([N+](=O)[O-])cc4)=Cc4ccccc4C3CC(C)=O)cc2)cn1 (stereo not given)	13.7	19.7	12.2	i	4.9
COc1ccccc1S(=O)(=O)N(C)C[C@@H]1Oc2cc(C#CCC3CCCC3)ccc2S(=O)(=O)N([C@@H](C)CO)C[C@H]1C	-1.7	3.7	2.7	i	1.5
C[C@@H]1CN([C@@H](C)CO)C(=O)c2cc(-c3cccnc3)cnc2O[C@@H]1CN(C)C(=O)Nc1ccccc1	0.0	-5.0	-2.8	i	-3.2
COc1ncnc2c1ncn2CCCN1CCN(Cc2ccc(C)cc2)CC1	4.7	3.0	0.4	i	0.2
CO[C@H]1CN(C)C(=O)c2ccc(NC(=O)c3cnccn3)cc2OC[C@H](C)N(CCc2ccccc2)C[C@@H]1C	-2.9	-9.1	0.7	i	5.4
CC(C)C[C@@H](CNCC(=O)[C@H](C)NC(=O)c1[nH]cnc1C(=O)N[C@@H](C)CN)NC(=O)c1nc[nH]c1C(=O)N[C@@H](Cc1ccccc1)C(=O)O	9.1	22.8	-3.1	i	-1.5
CC(C)CC#Cc1ccc([C@@H]2[C@H](CO)N3CCCCN(C(=O)c4ccc5c(c4)OCO5)C[C@@H]23)cc1	-56.0	-77.0	-13.3	i	15.2
C[C@@H]1CN([C@H](C)CO)C(=O)c2cccc(NC(=O)c3nc4ccccc4s3)c2O[C@@H]1CN(C)S(C)(=O)=O	-3.9	-0.3	-0.5	i	0.6
C[C@H]1CN([C@@H](C)CO)C(=O)c2cc(C#CC3(O)CCCC3)cnc2O[C@H]1CN(C)S(=O)(=O)c1cccc(F)c1	0.9	-11.5	2.2	i	-12.8
COc1ccc2c3c([nH]c2c1)[C@@H](CO)N(Cc1ccccc1)CC31CN(C(=O)Nc2cccc(F)c2)C1	-9.0	-9.1	0.4	i	1.8
Cc1cccc(S(=O)(=O)N2CCCCN3[C@H](CO)[C@H](c4ccc(C#CC5CC5)cc4)[C@H]3C2)c1	-57.5	-60.0	-6.2	i	9.7
C[C@@H]1CN([C@H](C)CO)C(=O)c2cc(C#CCN(C)C)cnc2O[C@@H]1CN(C)C(=O)c1ccc(F)cc1	-1.2	-9.5	-0.9	i	-2.7
C[C@@H]1CN([C@H](C)CO)C(=O)c2c(c3ccccc3n2C)-c2ccccc2CO[C@H]1CN(C)CC1CC1	8.9	0.8	-5.0	i	-3.4
O=C(O)c1ccc([N+](=O)[O-])nc1	11.8	11.5	1.0	i	7.0
Clc1ccc(N(CC2CO2)CC2CO2)cc1 (stereo not given)	0.0	-11.7	-0.7	i	-4.2
CCC(=O)N1[C@@H]2c3ccc(C4=CCCC4)c(=O)n3C[C@H]1[C@H](CO)[C@H]2C(=O)N[C@H](C)c1ccccc1	-2.1	-2.2	-2.8	i	1.1
C[C@H]1CCCCO[C@@H](CN(C)C(=O)Cc2ccccc2)[C@@H](C)CN([C@@H](C)CO)C(=O)c2cc(NC(=O)Cc3ccccc3)ccc2O1	-0.5	-2.4	1.4	i	4.2
O=S(=O)(c1ccccc1)N1CCCCN2[C@H](CO)[C@H](c3ccc(C#Cc4cccnc4)cc3)[C@@H]2C1	-7.8	3.4	8.7	i	-5.8
O=C(O)c1ccccc1/C=N/Nc1ccc(S(=O)(=O)Nc2ccc(Cl)cc2)cc1[N+](=O)[O-]	-6.4	3.4	4.8	i	-3.6
CC(C)NC(=O)Nc1ccc2c(c1)C(=O)N([C@H](C)CO)C[C@H](C)[C@@H](CN(C)C(=O)Nc1ccccc1)OCCCC[C@@H](C)O2	1.6	3.4	0.1	i	-3.9
CN1c2ccc(-c3ccc(F)cc3)cc2[C@@H]2[C@@H](CCN2S(=O)(=O)c2cccc(F)c2)[C@@H]1CO	0.9	-12.2	3.0	i	9.7
C[C@@H]1CN([C@H](C)CO)C(=O)c2cc(-c3cccnc3)cnc2O[C@@H]1CN(C)Cc1ccc(-c2ccccc2)cc1	-0.4	-0.7	4.1	i	2.8
CC(C)C[C@@H](COCc1ccc([N+](=O)[O-])cc1)N1CCN(C(=O)c2ccc(C(F)(F)F)cc2)CCC1=O	-2.8	0.3	3.4	i	4.0
COc1ccc(CN(C)C[C@H]2Oc3ccc(NC(=O)c4ccncc4)cc3C(=O)N([C@H](C)CO)C[C@@H]2C)cc1	-3.9	-6.4	-1.6	i	0.8
CCOC1=C2CN(S(=O)(=O)c3ccc(C)cc3)[C@H](c3ccccc3)C[C@@H]2N(S(=O)(=O)c2ccccc2C)[C@H](c2ccccc2)C1	5.6	12.8	-6.3	i	-3.4
CN(C)C(=O)C[C@H]1C[C@H]2c3cc(NC(=O)Cc4ccncc4)ccc3O[C@H]2[C@@H](CO)O1	1.3	13.1	0.4	i	1.5
O=C(Cc1ccccc1)N1C[C@H]2[C@@H](c3ccccc31)[C@H](CO)N2C(=O)c1cccc(F)c1	0.0	-3.1	0.5	i	-4.5
CCCNC(=O)C[C@@H]1CC[C@H]2[C@@H](COc3ccc(NC(=O)c4ccc5c(c4)OCO5)cc3C(=O)N2C)O1	1.0	2.2	-0.3	i	-2.2
COc1ccccc1CNC(=O)C[C@@H]1C[C@@H]2c3cc(NC(=O)C4CCOCC4)ccc3O[C@@H]2[C@@H](CO)O1	-1.2	-6.7	-0.5	i	5.4
N#C[C@@H]1[C@@H](c2ccc(-c3cncnc3)cc2)[C@H](CO)N1C(=O)CN1CCOCC1	1.4	6.9	-1.7	i	-1.8
CO[C@H]1CC[C@@H]2CCOc3c(C#N)cccc3C(=O)N(C)C[C@@H](c3ccccc3)CC(=O)N(C)C[C@@H]1O2	2.7	17.2	1.1	i	-2.0
O=C(NCC[C@@H]1CC[C@@H](NC(=O)c2ccc3c(c2)OCO3)[C@H](CO)O1)Nc1cc(F)ccc1F	-11.1	-12.5	2.7	i	10.8
C[C@H](CO)N1C[C@H](C)[C@@H](CN(C)Cc2ccccc2)Oc2ccc(NS(=O)(=O)c3ccc(Cl)cc3)cc2CC1=O	-54.7	-77.4	-12.4	i	11.2
N#Cc1c(C#N)c(SSc2c(C#N)c(C#N)c(N)n2-c2ccccc2)n(-c2ccccc2)c1N	3.7	22.9	-2.4	i	-4.2
Cc1cccc(S(=O)(=O)N2CCCCN3[C@H](CO)[C@@H](c4ccc(C#C[C@@H](C)O)cc4)[C@@H]3C2)c1	4.1	-18.4	0.5	i	-0.5
COCC(=O)N1CC[C@@H]2[C@H]1c1cc(-c3ccccc3)ccc1N(C)[C@@H]2CO	-0.5	1.1	-0.8	i	-0.6
O=S1(=O)N[C@H](Cc2ccccc2)COc2cccc(F)c21	-17.2	-8.8	2.5	i	-1.5
C[C@@H]1CN([C@@H](C)CO)C(=O)c2cc(C3=CCCC3)cnc2O[C@H]1CN(C)C(=O)NC1CCCC1	-1.9	2.6	-1.6	i	-16.4
CNC[C@H]1Oc2ccc(NC(=O)Nc3ccc(OC)cc3)cc2C(=O)N([C@@H](C)CO)C[C@@H]1C	0.2	2.1	-0.3	i	-1.8
COCC#Cc1ccc2c(c1)O[C@H](CN(C)C(=O)CN(C)C)[C@@H](C)CN([C@H](C)CO)S2(=O)=O	3.0	2.7	-0.8	i	-3.2
C[C@H]1CN([C@@H](C)CO)C(=O)Cc2cc(N(C)C)ccc2O[C@@H]1CN(C)S(=O)(=O)c1cn(C)cn1	2.0	-2.5	-1.2	i	-1.5
O=C(C[C@@H]1CC[C@@H](NS(=O)(=O)c2ccccc2)[C@@H](CO)O1)N1CCc2ccccc2C1	1.1	1.9	0.3	i	-2.4
COc1ccc(NC(=O)N[C@@H]2CC[C@H](CC(=O)NC3CCCCC3)O[C@@H]2CO)cc1	-1.0	-0.4	0.4	i	-3.9
C[C@H](CO)N1C[C@H](C)[C@@H](CN(C)S(=O)(=O)c2ccc(F)cc2)Oc2ncc(C#CC3CCCCC3)cc2C1=O	-2.1	-5.5	-0.1	i	-7.2
CC(=O)N1[C@@H](CO)[C@H](c2ccccc2)[C@@H]1CN(C)C(=O)CN1CCOCC1	1.5	1.8	-1.2	i	-3.4
Cc1noc(C)c1NC(=O)Nc1ccc2c(c1)C(=O)N([C@@H](C)CO)C[C@H](C)[C@H](CN(C)C(=O)Nc1ccc3c(c1)OCO3)O2	2.0	4.6	-1.2	i	1.7
CO[C@H]1CC[C@@H]2CCOc3ccc(C#N)cc3C(=O)N(C)C[C@@H](OC)[C@H](C)C(=O)N(C)C[C@@H]1O2	4.6	5.6	-7.4	i	0.6
COCC(=O)N1C[C@@H](C)[C@H](OC)CN(C)C(=O)c2cc(NC(=O)NC(C)C)ccc2OC[C@@H]1C	-0.3	-2.2	0.6	i	-0.6
Cc1noc(C)c1NC(=O)Nc1ccc2c(c1)CC(=O)N([C@@H](C)CO)C[C@H](C)[C@@H](CN(C)S(=O)(=O)c1ccc(Cl)cc1)O2	0.5	-5.7	0.2	i	-0.9
CCOC(=O)C1(C)CCCN1C(=O)c1ccc(C(F)(F)F)nc1C (stereo not given)	10.7	19.7	2.1	i	-2.5
Nc1nc(SCc2ccccn2)c2ncn(C3OC(CO)C(O)C3O)c2n1 (stereo not given)	4.4	7.3	-0.6	i	-0.1
CC(=O)Nc1cccc(-c2ccnc3c2CC(C)(C(=O)NCc2ccc(F)c(F)c2)O3)c1 (stereo not given)	-1.4	-8.1	1.9	i	3.2
CCCN(C)C[C@H]1Oc2ncc(C#Cc3ccc(F)cc3)cc2C(=O)N([C@@H](C)CO)C[C@H]1C	3.4	8.5	-1.6	i	9.7
CN1C(=O)c2cc(NC(=O)c3cccc(C(F)(F)F)c3)ccc2OC[C@@H]2O[C@@H](CC(=O)O)CC[C@H]21	1.9	11.5	0.7	i	-2.3
CC(C)C(=O)N1CCCC1(C)C(=O)NCc1ccc(Cl)cc1 (stereo not given)	2.2	0.3	1.1	i	0.8
CC(C)NC(=O)Nc1ccc2c(c1)C(=O)N([C@@H](C)CO)C[C@@H](C)[C@H](CN(C)C(=O)Nc1ccccc1)O2	2.1	7.2	0.0	i	-0.9
CN1CCN(C(=O)C[C@H]2C[C@H]3c4cc(NC(=O)NC5CCCCC5)ccc4O[C@H]3[C@@H](CO)O2)CC1	8.8&6.1	7.0&1.2	0.0&0.3	i	-0.3&-0.6
O=C(N[C@@H]1CC[C@H](CCNS(=O)(=O)c2ccccc2Cl)O[C@H]1CO)c1ccc(F)cc1	-1.5	-4.6	0.1	i	-3.5

7 compounds drawn at random from those above:
SMILES	rRNA inh HTS	rRNA inh HTS OD600	rRNA inh HTS RFP	FGF22 binding	MLL AF4-AF9 inh
O=S(=O)(c1ccccc1)N1CCCCN2[C@H](CO)[C@H](c3ccc(C#Cc4cccnc4)cc3)[C@@H]2C1	-7.8	3.4	8.7	i	-5.8
CC(C)CC#Cc1ccc([C@@H]2[C@H](CO)N3CCCCN(C(=O)c4ccc5c(c4)OCO5)C[C@@H]23)cc1	-56.0	-77.0	-13.3	i	15.2
C[C@@H]1CN([C@H](C)CO)C(=O)c2cc(C#CCN(C)C)cnc2O[C@@H]1CN(C)C(=O)c1ccc(F)cc1	-1.2	-9.5	-0.9	i	-2.7
CC(=O)Nc1cccc(-c2ccnc3c2CC(C)(C(=O)NCc2ccc(F)c(F)c2)O3)c1 (stereo not given)	-1.4	-8.1	1.9	i	3.2
C[C@H](CO)N1C[C@H](C)[C@@H](CN(C)S(=O)(=O)c2ccc(F)cc2)Oc2ncc(C#CC3CCCCC3)cc2C1=O	-2.1	-5.5	-0.1	i	-7.2
O=C(Cc1ccccc1)N1C[C@H]2[C@@H](c3ccccc31)[C@H](CO)N2C(=O)c1cccc(F)c1	0.0	-3.1	0.5	i	-4.5
COc1ccccc1S(=O)(=O)N(C)C[C@@H]1Oc2cc(C#CCC3CCCC3)ccc2S(=O)(=O)N([C@@H](C)CO)C[C@H]1C	-1.7	3.7	2.7	i	1.5

Remaining list, next part.
SMILES	rRNA inh HTS	rRNA inh HTS OD600	rRNA inh HTS RFP	FGF22 binding	MLL AF4-AF9 inh
Cc1cc(C(=O)Nc2cccc3c2O[C@@H](CN(C)CC2CCCCC2)[C@@H](C)CN([C@@H](C)CO)C3=O)n(C)n1	2.7	8.5	-0.2	i	-26.3
Cc1ccc(S(=O)(=O)N(C)C[C@H]2Oc3ccc(N(C)C)cc3C(=O)N([C@H](C)CO)C[C@H]2C)cc1	3.8	1.4	-1.4	i	2.7
CO[C@@H]1CN(C)C(=O)c2cc(NC(=O)C3CCC3)ccc2OC[C@@H](C)N(S(=O)(=O)c2ccc(Cl)cc2)C[C@H]1C	-0.9	-7.7	4.2	i	1.5
CO[C@@H]1CN(C)C(=O)c2ccc(NS(=O)(=O)c3ccc(-c4ccccc4)cc3)cc2OC[C@H](C)NC[C@@H]1C	1.2	-3.5	10.0	i	0.3
NC(=S)NN=Cc1ccc(OC(=O)COc2cc(Cl)c(Cl)cc2Cl)cn1	-7.2	1.6	-2.6	i	-5.8

Only part of the results is shown; the hit share may differ from the screen's.
